Screening results (PubChem)
Mtb hypoxia rep: reduces hypoxia-regulated biosensor signal in M. tuberculosis; M. tuberculosis hypoxia-regulated fluorescent reporter, fluorescence; fluorescence inhibition, % (test concentration not listed); 0.1% of 300,000 active; AID 1159583;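 active = 35 to 45% if threefold the growth effect, above 45% if 1.5-fold the growth effect; inactive = the rest, general growth blockers included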;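 also: wells of about 50 µL received 100 nL stock; 0% = vehicle wells and 100% = reference inhibitor wells; whole bacteria with a GFP reporter of the hypoxia response; strong numbers were not always called active; many hits fall short of the cut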
Sa RN4220 lethal: kills Staphylococcus aureus RN4220; 0.33% of 330,000 active; inhibition, % (concentration not given with the values); S. aureus RN4220 growth, OD600, 16 h; AID 1259311;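 active = z-score of -3 or lower and OD600 up to 0.18 on both plates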;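 also: plate controls were untreated cells for no effect and reference antibiotic for full effect; stock transfer was 100 nL into about 80 µL; one replicate is shown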
Autofluor counter: counter-screen for toxin protease inhibitors: compound fluorescence | compound autofluorescence counterscreen, microsphere flow cytometry; hits give high values | fluorescence intensity (test concentration not listed) | 3.1% of 360,000 active | AID 624483;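 active = at least 3 SD above the mean of all compounds, about 16000 in these data; inconclusive = too few beads counted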;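 also: 100 nL of 1 mM stock went into each well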
BJeLR lethal: kills HRASV12-expressing BJeLR cells; 0.17% of 300,000 active; BJeLR (HRASV12) viability, CellTiter-Glo ATP luminescence, 48 h; reference of the scale not given here; inhibition, % (test concentration not listed);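 active = replicate mean above 50%; inconclusive = above 50% but judged a plate artefact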;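 also: 50 nL library stock added to about 25 µL; numbers are from one replicate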
PrP 5UTR inh: inhibition of PrP 5' UTR reporter expression; cell-based PrP 5' UTR mRNA reporter, plate reader; inhibition, % (test concentration not listed); 0.35% of 340,000 active;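 active = every replicate at 50% or more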;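 also: 0 = median of the neutral control wells; tested in H4 reporter cells; numbers are from one replicate; inactives centre near -14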
Sa ugtP lethal: growth inhibition of S. aureus ugtP deletion strain | S. aureus RN4220 ugtP deletion, OD600 growth, 16 h; some inactives read as strong as hits | growth inhibition, % (test concentration not listed) | 0.54% of 330,000 active | AID 1259309;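 active = z-score under -3 and OD600 up to 0.15 on both plates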;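 also: plate controls were untreated wells for no effect and antibiotic for full effect; wells of about 80 µL received 100 nL stock; the first replicate is given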
Mtb hypoxia rep growth: also measured in Mtb hypoxia rep; calls as there; growth inhibition, %; measured here: M. tuberculosis growth (absorbance);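 0% = vehicle and 100% = reference antibiotic; read after six days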
* marks the source's active call; other numbers are inactive results; ? = inconclusive; nt = no result given. The order is random. About 3.9% of those tested had a hit in this group.

canonical_smiles	Mtb hypoxia rep	Mtb hypoxia rep growth	Sa RN4220 lethal	Autofluor counter	BJeLR lethal	PrP 5UTR inh	Sa ugtP lethal
NC(=O)C1CCN(C(=O)c2ccc(NC3=NC4CS(=O)(=O)CC4S3)cc2)CC1 (configuration not stated)	0.3	1.4	-11.0	5846	-4.6	-16.2	-5.0
CCOC(=O)c1c(C)[nH]c(C(=O)OCC(=O)NC(C)(C)C)c1C	-2.6	2.0	2.7	4563	7.4	-15.7	2.9
CCN(CC)c1ccc(CN(C)CCc2ccc(OC)c(OC)c2)cc1	1.3	4.5	-0.3	10512	-0.4	-20.3	0.5
CCOP(=O)(/C=C(\Cl)c1ccccc1)C(O)c1ccc(F)cc1 (configuration not stated)	4.6	9.1	3.9	3783	1.6	-27.7	-1.9
O=C(NCc1ccncc1)c1ccc(NS(=O)(=O)c2cccc([N+](=O)[O-])c2)cc1	nt	nt	nt	5936	-6.9	5.9	nt
CC(=NNC(=O)c1ccoc1C)c1ccc(NC(=O)C2CCCC2)cc1	4.6	-0.8	-0.7	nt	nt	nt	-4.3
COc1ccccc1OCCC(=O)OCC(=O)Nc1ccc2c(c1)OCCO2	9.0	4.7	3.9	4320	nt	-20.1	7.9
CCN(C(=O)C1CCCN(c2nc(-c3ccc(OC)cc3)no2)C1)c1ccccc1F (configuration not stated)	10.3	10.8	-6.2	6332	-1.3	-1.2	10.1
COC(=O)C1=C(c2cccc(OCc3ccccc3)c2)CC2CCC1N2C(=O)NCc1cccc(OC)c1 (configuration not stated)	-5.1	-4.3	-10.0	nt	nt	nt	-1.0
Cc1ccc(C(=O)OCC(=O)N2CCOCC2)cc1	16.5	-1.3	1.5	3492	-10.8	-16.2	2.5
COc1ccc(NS(=O)(=O)c2ccc(C(=O)Nc3c(C)n(C)n(-c4ccccc4)c3=O)cc2)cc1	-9.6	2.0	-6.2	2936	nt	2.3	9.4
CCn1c(SCc2nc3scc(-c4ccccc4)c3c(=O)[nH]2)nnc1-c1cccs1	-3.0	5.6	4.4	2495	-13.6	-14.7	1.8
Cc1ccc(NC(=O)COC(=O)Cc2csc(-c3cccc(F)c3)n2)cc1C	7.5	5.3	3.7	2081	-4.3	-21.6	1.2
CCCOc1ccc(/C(O)=C2/C(=O)C(=O)N(CCCn3ccnc3)C2c2cccs2)cc1 (configuration not stated)	nt	nt	nt	2479	5.7	-13.2	nt
COC(=O)c1ccc(C(=O)N2CCCC(CNC(=O)c3ccc(F)cc3)C2)cc1 (configuration not stated)	8.4	2.4	2.5	5224	4.8	-16.1	7.5
CN(Cc1ccccc1)S(=O)(=O)c1cn(C)cn1	-0.2	3.1	4.6	6153	3.1	-24.9	5.1
Clc1ccc(Nc2ccc(NCc3ccccc3)nn2)cc1	-4.2	3.8	-6.4	9917	-0.2	-21.3	19.0
COc1ccc(CC(=O)NNC(=O)COc2ccc3ccccc3c2)cc1	15.7	7.1	1.0	1923	-17.5	-17.8	1.3
CSc1ccc(C=NNc2nc(C)cc(C)n2)cc1	12.3	1.5	-1.0	nt	nt	nt	5.9
OCCCNC(=S)Nc1ccc(Oc2ccccc2)cc1	-9.0	4.6	3.4	2290	4.6	-22.2	3.6

Later entries
canonical_smiles	Mtb hypoxia rep	Mtb hypoxia rep growth	Sa RN4220 lethal	Autofluor counter	BJeLR lethal	PrP 5UTR inh	Sa ugtP lethal
COc1ccc(NC(=O)CN(C)C(=O)c2cccc(S(=O)(=O)N3CCN(c4ccc(F)cc4)CC3)c2)cc1	5.4	1.4	1.8	3038	nt	-15.0	16.3
CC1CN(C(=O)c2cccc(S(=O)(=O)N3CCN(c4ccc(F)cc4)CC3)c2)CC(C)O1 (configuration not stated)	2.2	7.4	0.8	7455	8.6	0.4	-0.4
Cc1nnc(NN=Cc2ccc(Br)cc2)n1N	2.0	3.5	-0.5	nt	nt	nt	-3.6
COc1ccc(S(=O)(=O)N[C@@H](Cc2ccc(Cl)cc2)C(=O)N2CC[C@@]3(O)CCCC[C@H]3C2)cc1	nt	nt	nt	2253	-4.0	5.8	nt
O=C1CCc2cc(S(=O)(=O)NCCC(=O)NC3CCCCC3)ccc2N1	15.3	11.3	4.9	5195	1.5	-0.9	12.8
CCCCCn1c(=O)c(C(=O)NCc2ccccc2)c(O)c2ccccc21	16.7	-2.0	-1.6	3963	-5.4	-25.7	44.1
N/C(=N\NC(=O)c1cccs1)c1cc2ccccc2oc1=O	nt	nt	nt	7629	12.3	-9.7	nt
CC(Cc1c[nH]c2ccccc12)NC(=O)C1CCCNC1=O (configuration not stated)	4.1	2.9	2.6	11681	-0.2	-25.6	-1.5
Cc1ccc(C(=O)N(CC#N)CC#N)cc1C	9.7	-5.4	3.0	3600	7.7	-9.9	7.3
Cc1cc(C)nc(SC2CCOC2=O)n1 (configuration not stated)	nt	nt	4.6	3613	-4.2	-12.3	-0.4
Cc1ccc(S(=O)(=O)c2cn(Cc3ccc(F)cc3)c3cc4c(cc3c2=O)OCO4)cc1	5.8	5.3	9.3	2598	0.7	-25.2	-10.7
O=C(NNC(=O)c1ccncc1)Nc1ccc(N=Nc2ccccc2)cc1	11.5	7.0	-0.5	3825	nt	-45.0	-6.3
CC(=O)c1cc(C#N)c(Oc2ccccc2)nc1C	nt	nt	2.4	2421	0.1	-4.9	-1.4
Oc1ccc(/C=N/NP(=S)(c2ccccc2)c2ccccc2)c(O)c1O	nt	nt	nt	10519	9.8	-2.9	nt
Cc1[nH]c(-c2ccc3c(c2)OCO3)nc1C(=O)O	4.5	2.8	-4.8	6040	-5.0	-29.0	-1.6
COc1ccc2[nH]c3c(c2c1)CCN1C(=O)C(CC(=O)NCc2ccc(OC)c(OC)c2)C[C@H](C(=O)N(C(C)C)C(C)C)[C@@]31C (some centres not stated)	-10.6	7.0	3.7	3028	nt	-10.4	1.9
CCCCCc1c2c(cc(O)c1C(=O)O)OC(=O)c1c(cc(OC)cc1C(=O)CCCC)O2	nt	nt	-2.4	5489	4.2	-11.3	7.0
CC(=O)Oc1ccc2nc(-c3cccs3)oc(=O)c2c1	-3.1	0.5	2.0	3027	3.4	-8.3	4.3
Cc1c(NC(=O)c2ccc(-c3cccc([N+](=O)[O-])c3)o2)c(=O)n(-c2ccccc2)n1C	5.0	3.0	1.7	4330	-6.3	-36.9	8.8
COc1ccc(CC(=O)Nc2cc(C)c3c(=O)oc4ccccc4c3n2)cc1	1.4	8.9	-3.9	4302	0.2	-6.3	12.7

Record cards, from the list above. Order of screens: Mtb hypoxia rep, Mtb hypoxia rep growth, Sa RN4220 lethal, Autofluor counter, BJeLR lethal, PrP 5UTR inh, Sa ugtP lethal
Results for CCCCCc1c2c(cc(O)c1C(=O)O)OC(=O)c1c(cc(OC)cc1C(=O)CCCC)O2 : nt, nt, -2.4, 5489, 4.2, -11.3, 7.0
Results for O=C(NNC(=O)c1ccncc1)Nc1ccc(N=Nc2ccccc2)cc1 : 11.5, 7.0, -0.5, 3825, nt, -45.0, -6.3
Results for COc1ccc(CC(=O)Nc2cc(C)c3c(=O)oc4ccccc4c3n2)cc1 : 1.4, 8.9, -3.9, 4302, 0.2, -6.3, 12.7

New compounds follow
canonical_smiles	Mtb hypoxia rep	Mtb hypoxia rep growth	Sa RN4220 lethal	Autofluor counter	BJeLR lethal	PrP 5UTR inh	Sa ugtP lethal
COc1ccccc1CNC(=O)C1(c2ccc(Cl)cc2)CC1	9.1	7.8	2.9	2536	-3.0	-19.2	-3.9
CCCCN1C(=O)C(C(=O)OCc2ccccc2)CC2=C1CCCC2=O (configuration not stated)	2.1	2.9	3.4	3071	nt	-24.8	7.6
Cn1c(C(=O)NC2CC2)cc(=O)n(C)c1=O	-0.8	1.8	3.6	2499	6.3	-118.8	5.9
Cc1ccc(CNC(=O)C(=O)NCC2OCCN2S(=O)(=O)c2ccc(C)cc2)cc1 (configuration not stated)	2.8	-6.8	4.7	?	-2.7	9.1	7.4
O=C(O)CCN1C(=O)NC2(CCCC2)C1=O	1.7	9.0	2.5	3813	-4.6	-19.0	4.1
COc1ccc(C(C)=NNC(=O)Cc2c(C)nc(C)[nH]c2=O)cc1	-4.9	7.4	2.7	nt	nt	nt	4.2
COc1ccc(S(=O)(=O)NCc2ccc(C(=O)N3CCN(c4ccccn4)CC3)cc2)cc1	nt	nt	18.1	3047	3.1	-4.9	-7.8
COc1ccc(OC)c(CN2CCCCCC2)c1	9.4	2.5	2.3	4059	2.6	-13.8	1.5
CNC(=O)OCCSCCS(=O)(=O)c1ccc(Cl)cc1	-23.8	-38.3	3.9	5783	-12.3	-33.7	2.1
Cc1ccc(CNC(=O)[C@@H](NC(=O)C2CCN(C(=O)[C@@H]3CCCN3)CC2)C(C)C)cc1	nt	nt	-0.3	4339	4.3	-13.3	6.1
CCS(=O)(=O)N1CCN(C(=O)c2ccc(-c3ccccc3)cc2)CC1	nt	nt	-7.0	4017	5.3	-19.6	-1.5
O=C(CCC(=O)N1CCN(S(=O)(=O)c2ccccc2)CC1)c1ccc(Br)cc1	14.2	2.9	4.0	3802	nt	-18.8	2.0
CN(C)C(=O)N1CCCC(C(=O)NCc2ccccc2)C1 (configuration not stated)	1.0	1.8	3.4	9295	-6.9	-14.6	5.7
CCN(CC)CCNC(=O)c1ccc(NC(=O)c2c(F)cccc2Cl)cc1	13.0	2.5	0.1	4802	-6.0	-3.3	5.2
COC(=O)C1=C(C)N(C)C(=O)NC1c1ccc(O)c(Cl)c1 (configuration not stated)	16.7	7.4	6.1	4456	8.3	-33.4	3.1
COc1ccc(CCC(=O)N2CCN(S(=O)(=O)c3ccc(C)cc3)CC2)cc1	-3.3	3.9	2.1	3900	nt	-14.2	-3.0
O=C(C1CCCN(S(=O)(=O)c2ccc(Br)cc2)C1)N1CCOCC1 (configuration not stated)	9.6	-0.1	0.7	6171	1.8	4.8	0.9
CC(NC(=O)C(C#N)=Cc1ccc(O)c(O)c1)c1ccccc1 (configuration not stated)	8.7	-2.0	7.6	nt	nt	nt	-7.6
Cc1ccc(Cn2cc(SCC(N)=O)c3ccccc32)cc1	6.5	8.0	-9.2	6091	-3.9	-28.1	-6.8
Cc1ccc(CN2CCN(N=C/C=C/c3ccccc3)CC2)cc1	-11.4	-1.9	2.0	nt	nt	nt	20.8

(list continues)
canonical_smiles	Mtb hypoxia rep	Mtb hypoxia rep growth	Sa RN4220 lethal	Autofluor counter	BJeLR lethal	PrP 5UTR inh	Sa ugtP lethal
COc1ccc(NC2=CC(=O)CC(C)(C)C2)cc1OC	8.3	-7.2	1.7	7135	-5.3	-28.0	6.5
Cc1ccc2c(c1)-c1c(cnn1CC(=O)NC(C)CCc1ccco1)CO2 (configuration not stated)	9.7	10.8	-6.1	6080	-3.6	-4.0	-10.4
CN(c1ccccc1C(=O)NCc1ccccn1)S(C)(=O)=O	2.2	3.6	3.2	3650	-2.8	-13.7	-2.4
CC(=NNS(=O)(=O)c1ccc([N+](=O)[O-])cc1)c1ccc2c(c1)OCO2	3.9	-3.9	5.7	nt	nt	nt	10.0
COc1cc(C=C2C(=O)NN(c3ccccc3)C2=O)cc([N+](=O)[O-])c1O	6.9	3.1	0.8	nt	nt	nt	-5.7
CCc1ccc(CN2CCN(C(=O)c3cccc(OC)c3OC)CC2)cc1	nt	nt	-3.3	3819	7.7	-14.0	3.6
CC(=O)c1cccc(NC(=O)c2ccc3c(c2)OCO3)c1	5.8	4.2	1.6	4558	2.8	-8.9	0.2
Cc1ccc(OCC(=O)Nc2ccc(S(=O)(=O)Nc3cc(C)nc(C)n3)cc2)c(C)c1	2.9	-0.9	3.8	5575	8.1	-13.9	2.5
CN(CCOc1ccc(Cl)cc1)C(=O)c1cccc(S(=O)(=O)N2CCN(Cc3ccccc3)CC2)c1	4.7	6.2	3.8	3993	nt	-7.7	-0.3
Cc1ccc(N2C(=O)NC(=O)/C(=C\c3cc(C)n(-c4ccc(C(=O)O)cc4)c3C)C2=O)cc1	0.3	9.4	0.3	3712	-8.7	-11.6	2.2
CCOC(=O)C1=C(c2ccccc2)NC(SCC(=O)Nc2cccc(C)c2)=C(C#N)C1c1ccco1 (configuration not stated)	-3.3	2.3	4.6	15951	0.9	-8.6	-35.9
O=C(NN=Cc1ccc(N(CCCl)CCCl)cc1)c1cc(=O)[nH]c(=O)[nH]1	21.1	11.7	4.6	3789	nt	-14.1	-8.7
Cc1cccc(NC(=O)CNC(=O)CSc2ncccn2)c1C	12.1	10.3	1.8	3501	nt	-14.2	0.6
COc1ccccc1N1CCN(C(=O)c2cc3ccccc3[nH]2)CC1	-18.5	-6.9	4.0	nt	-1.7	-17.8	7.8
